# VACV Venus inh = inhibitors of vaccinia virus (Venus reporter). AID 720580. 0.46% of 330,000 active. Potency, µM (series often up to 36.5 µM), without a hit: top-dose activity change, negative = inhibition, most hits filed as inhibitors. Vaccinia virus Venus reporter expression, fluorescence; active means well fitted inhibition curve with a large enough effect; inconclusive means small, poorly fitted or top-dose-only effect; inactive means no such curve, though single readings can be large or run the other way; tested in A549 cells; further: nearly all actives have a fitted effect of over 30% in size; inactives centre near -10
# Vaccinia mCherry = vaccinia inhibition (mCherry reporter). Vaccinia virus mCherry reporter infection, fluorescence; about a quarter of the inactives have no number. Potency, µM (titrated, usually from 36.5 µM), inactives show at the top dose activity change, negative = inhibition, usual class: inhibitors. 0.63% of 310,000 active. AID 720579; active = well fitted inhibition curve with a large enough effect; inconclusive = small, poorly fitted or top-dose-only effect; inactive = no such curve, though single readings can be large or run the other way; tested in A549 cells; further: nearly all actives have a fitted effect of over 35% in size; inactives centre near -10
# An asterisk follows results filed as active; i = inactive; ? = inconclusive; nt = no result given; [ ] = another dose, or the depositor's remark. On the % scale 0 is the no-effect control and ±100 the full control effect; potency means the concentration at half of the fitted maximal effect.
# A first look, 4 compounds:
SMILES,VACV Venus inh,Vaccinia mCherry
Cc1cccc(NC(=O)C(=O)NCC(c2cccnc2)N2CCOCC2)c1 (stereo not drawn),-3%,-7%
O=C1Nc2cc(Br)ccc2C1(O)c1ccccc1O (stereo not drawn),-19%,-8%
O=[N+]([O-])c1ccccc1-c1cc(-c2cc(Cl)ccc2O)n[nH]1,?,-26%
NC(=NCCc1c[nH]c2ccccc12)NS(=O)(=O)c1ccc2ccccc2c1,?,i

# The whole of this part, from the start:
SMILES,VACV Venus inh,Vaccinia mCherry
Cc1cccc(NC(=O)C(=O)NCC(c2cccnc2)N2CCOCC2)c1 (stereo not drawn),-3%,-7%
O=C1Nc2cc(Br)ccc2C1(O)c1ccccc1O (stereo not drawn),-19%,-8%
O=[N+]([O-])c1ccccc1-c1cc(-c2cc(Cl)ccc2O)n[nH]1,?,-26%
NC(=NCCc1c[nH]c2ccccc12)NS(=O)(=O)c1ccc2ccccc2c1,?,i
O=C(Cn1c(=O)n(CC2CCCO2)c(=O)c2ccccc21)c1ccccc1 (stereo not drawn),3%,nt
COc1ccc(C2=NOC(Cn3nc(-c4ccccc4)cc3C(=O)NCc3cccs3)C2)cc1 (stereo not drawn),-17%,-13%
Clc1ccccc1Cn1c(-c2cccs2)nc2ccccc21,-12%,-6%
Cc1nc(C(=O)O)nn1-c1cc(Cl)ccc1Cl,1%,i
O=C(/C=C/c1ccccc1)NC(=S)Nc1ccc(N2CCOCC2)cc1,-19%,i
CCC(=O)N1CCCC(C(=O)c2ccc(-c3ccccc3)cc2)C1 (stereo not drawn),-9%,-16%
NS(=O)(=O)c1ccc(CCNC(=O)NC2(C(F)(F)F)Oc3ccccc3O2)cc1,-18%,-15%
S=C(Nc1ccccc1Oc1ccccc1)Nc1cccc(Cl)c1Cl,-8%,-3%
CC(=O)Oc1cc2c(c3ccccc13)CCC2=O,-7%,-18%
Cc1ccc(CN2CCNC(=O)C2CC(=O)NC2CCCCCC2)cc1 (stereo not drawn),-17%,?
COc1ccc(N(C(=O)c2snc(C(N)=O)c2N)C(C(=O)NC2CCCC2)c2ccc(C)o2)c(OC)c1 (stereo not drawn),-7%,-13%
CCc1ccc(S(=O)(=O)NCc2nc3cccnc3n2Cc2cccc(OC)c2)cc1,-14%,-11%
Cc1ccc(S(=O)(=O)N(CC(=O)NCc2ccco2)Cc2ccccc2F)cc1,-9%,i
Cc1ccc(NC(=O)Nc2ccc3c(c2)nc(C)n3C)cc1,-24%,i
O=C(c1ccc(Cl)cc1Cl)N1CCC(C(=O)N2CCOCC2)CC1,-8%,-24%
O=[N+]([O-])c1ccc(Cc2ccncc2)cc1,-5%,-1%
O=C(NCC1CCN(Cc2cccc(F)c2)CC1)c1cc2ccc3cccnc3c2[nH]1,-17%,-17%
Cc1ccc(C(=O)OCC(=O)NCc2ccco2)cc1S(=O)(=O)N1CCOCC1,3%,-20%
O/N=C(/C[n+]1cccc(Br)c1)c1ccc2ccccc2c1,-17%,25%
CCN1C(=O)/C(=C2/SC(C)=C(C)N2CC)SC1=S,-7%,-13%
Cc1cc(=O)c(C(=O)O)nn1-c1ccccc1F,-2%,i
O=C(CCNC(=O)c1ccccc1Cl)Nc1ccc(S(=O)(=O)Nc2ncccn2)cc1,6%,i
CCn1c(SCCOc2ccccc2F)nc2ccccc21,-9%,i
C[C@H](CO)N1C[C@H](C)[C@@H](CN(C)Cc2ccc(Cl)c(Cl)c2)Oc2c(NC(=O)c3ccncc3)cccc2C1=O,?,-1%
Cc1ccc(NC(=O)C(=O)NCCCN2CCOCC2)cc1C,-2%,0%
Cc1nn(CC(=O)N2CCN(C34CC5CC(CC(C5)C3)C4)CC2)c(C)c1[N+](=O)[O-],-15%,-21%
CCOC(=O)CSc1nc(C)cc(C)c1C#N,-23%,nt
FCCCOc1ccc(-c2nccc(-c3ccc(Cl)cc3)n2)cc1,-9%,nt
Cc1nc2sc(C(c3cccs3)N3CCN(c4cccc(Cl)c4)CC3)c(O)n2n1 (stereo not drawn),?,?
O=C(Nc1ccccc1O)c1ccc(Cl)cc1,-17%,-14%
CC1CCN(C(=O)CSc2nnc3ccc(-c4cccnc4)nn23)CC1,-8%,-20%
COc1cc(CCC(=O)Nc2cc(S(=O)(=O)N3CCOCC3)ccc2OC(C)C)cc(OC)c1OC,-8%,i
CCOC(=O)Cc1csc(N/C(=N/S(=O)(=O)c2ccc(F)cc2F)c2ccccc2)n1,-15%,i
CN(C)c1nc(N)nc(CSc2nnnn2-c2ccc(Cl)cc2)n1,-3%,2%
COc1ccc(S(=O)(=O)N(CCCN2CCCC2=O)Cc2cc3c(C)ccc(C)c3[nH]c2=O)cc1,-25%,nt
CCOC(=O)Cc1csc(NC(=O)Nc2ccccc2)n1,-19%,i
Cc1ccc(-c2csc(N3CCN(c4cc5c(cc4Cl)nc(-c4ccncc4)n5CCOCCO)CC3)n2)cc1,-20%,?
N#Cc1cccc(NC(=O)c2cc(C3CCCCN3S(=O)(=O)c3ccccc3)on2)c1 (stereo not drawn),1%,15%
O=C(NNC(=O)C1CC1)c1cc(Cl)nc2ccccc12,5%,-8%
CCOc1ccc2sc(NS(=O)(=O)c3ccc(OC)c(OC)c3)nc2c1,-8%,-23%
CCN(CC)C(=O)C(Oc1ccc(C)nc1[N+](=O)[O-])c1ccccc1 (stereo not drawn),17%,2%
O=C(Oc1ccccc1Cl)c1ccccc1,-11%,-17%
COc1ccc(-c2cc(C(F)F)n3ncc(C(=O)NCCCN4CCCC4=O)c3n2)cc1,?,-10%
CCOC(=O)c1ccc(-n2c(-c3ccc(C)cc3)c(C)n3c4c(=O)n(C)c(=O)n(C)c4nc23)cc1,10%,9%
CC(=O)OC1N=C(c2ccccc2)c2cc(Br)ccc2N(C)C1=O (stereo not drawn),-15%,i
O=c1c(-c2ccc3c(c2)OCCO3)coc2cc(OC3OC(CO)C(O)C(O)C3O)ccc12 (stereo not drawn),-4%,-10%
Cc1onc(-c2ccccc2)c1C(=O)N/N=C/c1cc2c(cc1Cl)OCO2,-30%,?
Cc1ccc(C(=O)N[C@H](C(=O)Nc2sccc2C(N)=O)C(C)C)cc1,-17%,0%
CC(C)CNC(=O)CN1c2cccc3cccc(c23)S1(=O)=O,-1%,-22%
CC1OC(C)(C)OC1C1CNc2nc(NC(=O)C(C)(C)C)[nH]c(=O)c2N1C(=O)c1cccnc1 (stereo not drawn),-11%,-19%
O=C(COC(=O)c1cncc(Br)c1)NCc1ccc(F)cc1,-9%,i
Cc1sc2c(c1C)c(=O)n(Cc1ccccc1)c(=O)n2CC(=O)Nc1cccc(Cl)c1,-25%,-16%
CCn1cc(C(=O)NCc2ccc(C)cc2)c(=O)c2cc(S(=O)(=O)N(C)C3CCCCC3)ccc21,-12%,-27%
CCN(c1ccccc1)S(=O)(=O)c1ccc(N)cc1,7%,9%
CC(NS(=O)(=O)c1ccc(N)cc1)C1CC2CCC1C2 (stereo not drawn),-27%,?
Cc1cnc(C(=O)OCC(=O)NCc2ccccc2)cn1,-20%,-18%

# Compounds above containing a nitro group on carbon:
SMILES,VACV Venus inh,Vaccinia mCherry
O=[N+]([O-])c1ccccc1-c1cc(-c2cc(Cl)ccc2O)n[nH]1,?,-26%
O=[N+]([O-])c1ccc(Cc2ccncc2)cc1,-5%,-1%
Cc1nn(CC(=O)N2CCN(C34CC5CC(CC(C5)C3)C4)CC2)c(C)c1[N+](=O)[O-],-15%,-21%
CCN(CC)C(=O)C(Oc1ccc(C)nc1[N+](=O)[O-])c1ccccc1 (stereo not drawn),17%,2%

# Later entries.
SMILES,VACV Venus inh,Vaccinia mCherry
O=C(C[C@@H]1C/C=C\C[C@H](Cc2ccc(F)cc2)C(=O)OC[C@H]2CCCN2C1=O)N[C@H](CO)Cc1ccccc1,-3%,-4%
C[C@@H]1CN([C@H](C)CO)C(=O)c2cc(NS(=O)(=O)c3cn(C)cn3)ccc2O[C@H]1CN(C)C(=O)Nc1ccccc1,-4%,i
Brc1ccc(-c2csc(Nc3nc(-c4ccc(Br)cc4)cs3)n2)cc1,-10%,?
COc1ccc(CCn2c(=O)c3cccnc3n(CC(=O)Nc3ccc(C)c(F)c3)c2=O)cc1OC,-19%,-30%
COc1ccc(NC(=O)c2ccc(-n3nc(C)cc3C)cc2)cc1OC,-10%,nt
COc1ccc(-c2nc(CNS(=O)(=O)c3ccc(Br)cc3)cs2)cc1,-10%,-18%
CCCC(C(=O)NC1CCCCC1)N(CC1CCCO1)C(=O)CNS(=O)(=O)c1ccc(F)cc1 (stereo not drawn),-19%,nt
CN(Cc1ccccc1)S(=O)(=O)c1ccc2c(c1)n(C)c(=O)n2C,-13%,-18%
Cc1cccc(C)c1NC(=O)COC(=O)Cc1ccsc1,-4%,i
COc1cccc(CNC(=O)CCc2nnc3n(C)c(=O)c4sccc4n23)c1,-12%,-17%
CC(C)CCn1c(NCCc2ccccc2)nc2c1c(=O)n(C)c(=O)n2C,?,?
CCOC(=O)C1CCCN(C(=O)COc2ccc(C(=O)c3ccccc3)cc2)C1 (stereo not drawn),-16%,-29%
CC(Oc1ccc(F)cc1)C(=O)Nc1ccccc1N1CCCCC1 (stereo not drawn),-6%,-15%
Cc1cc(C)c(C#N)c(OCC(=O)c2ccccc2)n1,-4%,-14%
O=C(Nc1ccc2c(c1)OCCO2)C(CCc1ccccc1)N(Cc1ccccc1)Cc1ccccc1 (stereo not drawn),4%,28%

# Of the compounds above, 2 contain a COOH group:
SMILES,VACV Venus inh,Vaccinia mCherry
Cc1nc(C(=O)O)nn1-c1cc(Cl)ccc1Cl,1%,i
Cc1cc(=O)c(C(=O)O)nn1-c1ccccc1F,-2%,i

# (next part)
SMILES,VACV Venus inh,Vaccinia mCherry
COCCNC(=S)N(CCc1c(C)[nH]c2ccc(F)cc12)Cc1ccc(C)cc1,-7%,-27%
FC(F)C(F)(F)Oc1cccc(Nc2nccn3c(-c4ccc5ccccc5c4)cnc23)c1,-14%,?
Cc1cc(C)c(S(=O)(=O)/N=C2\C=C(NS(=O)(=O)c3ccccc3)C(=O)c3ccccc32)c(C)c1,2%,?
CCc1c(C)sc(NC(=O)c2ccoc2C)c1C(N)=O,-22%,-8%
CC(=O)Nc1ccc(NC(=O)COC(=O)[C@@H]2CCCN2C(=O)c2cccs2)cc1,-5%,i
COc1ccc(Cl)cc1S(=O)(=O)NCc1cccnc1,-15%,i
Cc1ccc(S(=O)(=O)N2C[C@H]3N(C(=O)OC(C)C)N(C(=O)OC(C)C)C[C@H](OC(=O)Nc4c(C)noc4C)[C@@]3(O)C2)cc1,-10%,-14%
CCn1cc(S(=O)(=O)c2ccc(OC)cc2)c(=O)c2cc(F)c(N3CCCCCC3)cc21,?,?
O=C(CNC(=O)c1ccccc1)Nc1ccc(Br)cc1C(=O)c1ccccc1,-27%,-7%
CCCCNc1ncnc2oc(-c3ccco3)c(-c3ccco3)c12,-30%,-24%
COC(=O)C1=C(C(=O)OC)[C@]2([C@H]3CCCCN[C@@H](Cc4ccccc4)C(=O)N3Cc3ccccc3)C=C[C@H]1O2,?,-20%
CC(C)Cn1c(SCC(=O)c2c(N)n(C)c(=O)n(C)c2=O)nc2ccccc21,-6%,nt
c1ccc(CN2CCN(Cc3c[nH]c4ccccc34)CC2)cc1,-22%,-24%
COc1cccc(/C=N\NC(=O)c2ccc(C)nc2)c1,-3%,-11%
COc1ccccc1OCc1ccc(C(=O)N2CCN3CCCC3C2)cc1 (stereo not drawn),-17%,nt
CC(=O)Nc1ccc(S(=O)(=O)NCc2ccc(C(=O)NCCN(C)Cc3ccccc3)cc2)cc1,14%,48%[activator]
Cc1ccc(OCCNC(=O)c2cc(C(=O)NCCOc3ccc(C)cc3)cc([N+](=O)[O-])c2)cc1,-14%,-20%
Cc1ccc(S(=O)(=O)N2[C@@H](CO)CO[C@H]2CC(=O)c2cccs2)cc1,-26%,?
Cn1c(=O)c2c(nc(Cl)n2Cc2ccncc2)n(C)c1=O,-9%,-14%
CCC(C)NC(=O)c1cccc(C)c1 (stereo not drawn),-6%,1%
Cc1ccc(S(=O)(=O)N2CCCc3cc(NC(=O)c4ccc(Cl)cc4)ccc32)cc1,-23%,-13%
CCOc1ccc(CCNC(=O)COC(=O)COc2ccc(C(C)=O)cc2)cc1OCC,-12%,-20%
CN(C)S(=O)(=O)N(CC(=O)NCCSCc1c(F)cccc1Cl)c1ccccc1,-1%,-3%
CCOC(=O)NC(=O)COC(=O)c1cccc2ccccc12,6%,-6%
CN(C)c1ccc(CNc2nc(-c3ccco3)nn2S(=O)(=O)c2ccc3ccccc3c2)cc1,4%,-5%
CCOc1ccc(CCNC(=O)CSc2nc3ncc(Cl)cc3[nH]2)cc1OCC,-12%,-1%
CC12CCC(C(=O)N/N=C/c3ccc(O)cc3)(OC1=O)C2(C)C (stereo not drawn),-11%,-14%
CC(=O)c1cccc(Nc2cc(C)nc3c(C)cccc23)c1,-22%[7.34 µM],-14%[7.34 µM]
CCCSc1nc2c(c(=O)[nH]1)C(c1ccc(O)c(OCC)c1)CC(=O)N2 (stereo not drawn),-4%,i
CN(CCCCCCCCC(=O)/C=N/O)Cc1ccccc1,-13%,-7%
Cc1cccc(OCCCC(=O)Nc2ccc(Br)cc2)c1,-9%,-15%
Cn1c(=O)c2c(-c3cccc(Br)c3)n(CCO)cc2n(C)c1=O,-5%,-10%
CCCN(CC(=O)Nc1ccccc1OC)C(=O)c1ccccn1,-4%,-15%
COc1ccc(N2CCN(C(=O)CCS(=O)(=O)c3cccc4nsnc34)CC2)cc1,-14%,i
CCO[C@H]1OC(C(=O)N2CCN(C)CC2)=C[C@@H](C(C)(C)C)[C@@H]1CCCO,-5%,-9%
CCSc1ccccc1C(=O)NCCCn1ccnc1,-3%,-15%

# From PubChem
